Compound activity: PubChem BioAssay, National Center for Advancing Translational Sciences (NCATS)
PINK1 expr mod – changes PINK1 expression; PINK1 immunofluorescence, high-content cytometry, 24 h; Potency, µM (titrated, usually from 76.6 µM), for inactives: at the highest dose activation (PINK1 increase), most hits filed as activators; 410,000 compounds, 0.2% hits; active = well fitted activation curve with a large enough effect; inconclusive = small, poorly fitted or top-dose-only effect; inactive = flat fitted curve, though single readings scatter; cell line not stated here;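 note: % of control where 0% means no effect; nearly all actives have a fitted effect of over 65% in size; a mitochondrial uncoupler was the plate control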
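Decision-based qHTS: stable cells, 24 h exposure to five compound concentrations, CCCP as control. Fixed cells stained for PINK1 plus nuclear, mitochondrial and cell markers, cytometer read.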
An asterisk follows results filed as active; ? = inconclusive. Potency is the fitted concentration of half-maximal effect. Some of the compounds tested (hit frequency here may not be typical).

SMILES	PINK1 expr mod
CCOc1ccc(NC(=O)C2CCCN(c3nn4cc(-c5ccc(OC)cc5)nc4s3)C2)cc1 (stereo unspecified)	0.4%
CC(=O)Nc1ccc(S(=O)(=O)N2CCN(c3ccc(C(C)=O)cc3)CC2)cc1	1.1%
COc1ccc(Cn2c(=O)c3oc4ccccc4c3n(Cc3ccccc3)c2=O)cc1	-0.5%
Cc1ccc(Cl)cc1NC(=O)CN(C)S(=O)(=O)c1ccc2c(c1)n(C)c(=O)c(=O)n2C	-0.5%
COc1ccc(C(=O)Nc2nnc(S(=O)(=O)N(CC(C)C)c3ccccc3)s2)cc1	1.1%
COCCNC(=O)c1[nH]c2cc(C)ccc2c1Sc1ccc(Cl)cc1	4.7%
CCOC(=O)c1ccc(N2C(=O)c3n[nH]c(C)c3C2c2cccc(Br)c2)cc1 (stereo unspecified)	-0.4%
Cc1ccc(N2CC(c3nnc(NC(=O)c4ccco4)s3)CC2=O)cc1Cl (stereo unspecified)	-0.2%
CCOc1ccc2oc(=O)cc(CN3CCN(c4ccccc4)CC3)c2c1	-0.4%
Cc1ccc(Cl)cc1NC(=O)c1oc2ccc(S(=O)(=O)N(C)C3CCCCC3)cc2c1C	-0.3%
CCOC(=O)c1cccc(NC(=O)CCn2nc(C)c3c(C)n(-c4ccccc4)nc3c2=O)c1	-0.3%
Cc1ccc2c(CNCC(C)c3ccccc3)c(C(=O)O)n(Cc3ccccc3C)c2c1 (stereo unspecified)	2.8%
CSc1ncc(C(=O)Nc2cc(C)cc(C)c2)c(-c2ccccc2)n1	4.3%
COc1ccc(NC(=O)C2=C(C)Nc3nc(SCc4ccccc4)nn3C2c2cc(OC)ccc2OC)cc1 (stereo unspecified)	?
CCc1ccc(CNC(=O)c2ccc3c(c2)c(C)c(C)n3Cc2ccccc2)cc1	-0.6%

Quoted at random: five entries already listed, in no set order.
SMILES	PINK1 expr mod
Cc1ccc(Cl)cc1NC(=O)CN(C)S(=O)(=O)c1ccc2c(c1)n(C)c(=O)c(=O)n2C	-0.5%
CCOc1ccc(NC(=O)C2CCCN(c3nn4cc(-c5ccc(OC)cc5)nc4s3)C2)cc1 (stereo unspecified)	0.4%
CCc1ccc(CNC(=O)c2ccc3c(c2)c(C)c(C)n3Cc2ccccc2)cc1	-0.6%
COCCNC(=O)c1[nH]c2cc(C)ccc2c1Sc1ccc(Cl)cc1	4.7%
CSc1ncc(C(=O)Nc2cc(C)cc(C)c2)c(-c2ccccc2)n1	4.3%

The main list resumes with the two entries that preceded the break.
SMILES	PINK1 expr mod
COc1ccc(NC(=O)C2=C(C)Nc3nc(SCc4ccccc4)nn3C2c2cc(OC)ccc2OC)cc1 (stereo unspecified)	?
CCc1ccc(CNC(=O)c2ccc3c(c2)c(C)c(C)n3Cc2ccccc2)cc1	-0.6%
CCc1ccc(S(=O)(=O)c2nnn3c2nc(NCCc2ccccc2)c2sccc23)cc1	0.9%
COc1cc(NC(=O)N2CCC(CN3CCCC3)CC2)cc(OC)c1OC	-0.9%
CCOC(=O)N1CCN(Cc2nc3cc(NC(=O)c4ccccc4OC)ccc3n2C(C)C)CC1	6.3%
Cc1ccc(Cl)cc1NC(=O)Cn1c(=O)n(CCCS(=O)(=O)C2CCCCC2)c(=O)c2ccccc21	0.4%
CCOC(=O)N1CCc2c(sc3c2c(=O)n(-c2ccc(CC)cc2)c(=O)n3Cc2cc(C)ccc2C)C1	1.1%
CC1CCCN(C(=O)Cn2c(=O)n(CC3CCC(C(=O)NC(C)C)CC3)c(=O)c3sccc32)C1 (stereo unspecified)	0.7%
Cc1cc2oc(C(=O)Nc3ccc(S(N)(=O)=O)cc3)cc(=O)c2cc1C	5.3%
COc1ccc(NC(=O)C2CCN(S(=O)(=O)c3ccc4c(c3)CCCC(=O)N4)CC2)cc1OC	-0.6%
CC(CNC(=O)c1cc(-c2ccccc2)n[nH]1)c1ccccc1 (stereo unspecified)	-1.4%
CCOC(=O)c1nc(Nc2ccccc2OC)c2ccccc2n1	2.1%
COc1ccc(NC(=O)CCc2nc3c(C)nn(-c4ccc(C)cc4)c3n(C)c2=O)cc1	-0.8%
CCCCc1nn2c(=O)cc(COC(=O)c3cccc(NC(=O)c4cccc(C)c4)c3)nc2s1	0.4%
Cc1ccc(Cn2c(=O)n(CCc3ccc(Cl)cc3)c(=O)c3ccccc32)cc1	-0.5%
CC1CCCCN1C(=O)c1ccc2c(c1)N(Cc1ccc(Cl)cc1)C(=O)c1ccccc1S2=O (stereo unspecified)	1.8%
COc1ccc(-c2cc3c(=O)n(CC(=O)Nc4cc(F)ccc4F)ccn3n2)cc1OC	9.8%
CCCc1cnc2c(c1SCc1cccc(C)c1)c(=O)n(C)c(=O)n2C	0.2%
Cn1c(=O)c2nc(SCC(=O)Nc3cc(Cl)cc(Cl)c3)n(C)c2n(C)c1=O	1.2%
Cc1ccccc1Nc1c(-c2ccc(Cl)s2)nc2c(C)cccn12	3.9%
CCOC(=O)c1ccc2c(c1)N(Cc1cc(C)ccc1C)C(=O)c1ccccc1S2(=O)=O	1.0%
COC(=O)c1ccc(C2c3c(-c4ccccc4O)n[nH]c3C(=O)N2Cc2ccncc2)cc1 (stereo unspecified)	3.5%
COc1cc(NC(=O)C2CCCN(S(=O)(=O)c3ccc4c(c3)CCCC(=O)N4)C2)cc(OC)c1 (stereo unspecified)	-0.7%
CCc1ccccc1Nc1cc(C(=O)NC2CCC(C)CC2)c2ccccc2n1 (stereo unspecified)	13%
CC(C)c1ccc(CNc2nc(-c3ccco3)nn2S(=O)(=O)c2ccccc2)cc1	2.9%
Cc1ccc(NC(=O)C(Cc2ccccc2)NS(=O)(=O)c2ccc3c(c2)CCC(=O)N3)cc1 (stereo unspecified)	0.2%
CCC1(C)NC(c2ccc3c(c2)OCO3)=CC(c2ccccc2O)N1 (stereo unspecified)	0.7%
COC(=O)c1sccc1S(=O)(=O)N1CCN(c2ccc(C(C)=O)cc2)CC1	-0.4%
CN(C)CCNC(=O)C(=O)NCC(c1cccnc1)N1CCN(c2ccc(F)cc2)CC1 (stereo unspecified)	0.0%
Cc1ccc(OCCSc2nc3ccccc3n2CC(=O)NC(C)C)cc1	6.4%
COc1cccc(C(=O)Nc2ccc(-c3nc4ccc(C)cc4s3)cc2)c1OC	-4.5%
Cc1cc(C(=O)Nc2ccc(-n3c(C)nc4ccccc4c3=O)cc2)ccc1[N+](=O)[O-]	11%
Cc1ccc(C)c(NC(=O)C2CCN(c3nn4c(=O)cc(C)nc4s3)CC2)c1	1.3%
O=C1O/C(=C\c2ccc(O)cc2)C(O)=C1c1ccc(O)cc1	0.8%
Cc1oc(-c2ccccc2F)nc1CSCC(=O)NCc1ccccc1	-1.9%
COc1ccc(NC(=O)CN2C(=O)C3(SCC(=O)N3c3ccccc3)c3ccccc32)cc1Cl (stereo unspecified)	-3.7%
Cc1oc(-c2ccc(C(=O)NCc3cccc(F)c3)cc2)nc1COc1ccccc1	4.9%
O=c1[nH]c(=S)c2[nH]cnc2[nH]1	1.0%
COC(=O)c1ccc(C(=O)N2CCc3c(C(=O)NC(C)c4ccco4)c(OC)cc(=O)n3CC2)cc1 (stereo unspecified)	0.1%
CN(C)c1cccc(-c2csc(N3CCC(C(N)=O)CC3)n2)c1	4.6%
COc1ccc(OC)c(C(Cc2ccnc3ccccc23)Cc2ccnc3ccccc23)c1	0.5%
COc1ccc(S(=O)(=O)N2CCC(c3nnnn3-c3ccccc3)CC2)cc1OC	-1.2%
Cc1ccc(-c2nc(CS(=O)(=O)CC(=O)N3CCN(c4cccc(C)c4C)CC3)c(C)o2)cc1	-1.2%
COc1cccc(N2CCN(C(=O)c3ccc(C)c(NC(=O)c4nsc5ccccc45)c3)CC2)c1	1.9%
CCN(CC)c1ccc(-c2nc(-c3ccccc3C)no2)cc1[N+](=O)[O-]	7.3%
COC(=O)c1sccc1S(=O)(=O)N(CC(=O)NCc1ccc(F)cc1)c1ccccc1	1.5%
O=C(CSc1oc(-c2ccccc2)nc1S(=O)(=O)c1ccc(Cl)cc1)Nc1ccc(F)cc1	6.7%

Three entries already listed, ordered by heavy-atom count, rising.
SMILES	PINK1 expr mod
CN(C)c1cccc(-c2csc(N3CCC(C(N)=O)CC3)n2)c1	4.6%
CCN(CC)c1ccc(-c2nc(-c3ccccc3C)no2)cc1[N+](=O)[O-]	7.3%
COc1ccc(OC)c(C(Cc2ccnc3ccccc23)Cc2ccnc3ccccc23)c1	0.5%

More records.
SMILES	PINK1 expr mod
CCOc1cc(-c2ccc(OC(=O)c3ccccc3)c(OC)c2)cc(=O)c2c(C)oc(C)c12	6.4%
COc1ccc(-n2c3c(cc(-c4nc(-c5ccc(Cl)cc5)cs4)c2=O)C(=O)CC(C)(C)C3)cc1	0.2%
COc1ccc(Cl)c2sc(NC(=O)c3ccc(S(=O)(=O)N4CCCC4)cc3)nc12	-5.0%
COc1ccccc1N1CCN(Cc2nc(-c3cc(OC)c(OC)c(OC)c3)no2)CC1	3.9%
C[C@H]1CN(S(=O)(=O)c2ccc3c(c2)OCCO3)CCN1S(=O)(=O)c1c(F)cccc1F	2.0%
COc1ccc(/C=C/c2cnc3ccccc3n2)cc1OC	-0.6%
COc1ccccc1NC(=O)CSC1=Nc2ccccc2C2=NC(CC(=O)NCc3cccs3)C(=O)N12 (stereo unspecified)	1.6%
Cc1ccc(C)c(Cn2c(=O)n(-c3ccc(F)cc3)c(=O)c3sc4ccccc4c32)c1	1.2%
COC(=O)c1cc2sc(C)cc2n1CC(=O)Nc1ccc(C)cc1Cl	6.6%
CC(=O)N1CCC2(CC1)OC(=O)C(C)=C2C(=O)NCc1ccccc1Cl	2.0%
O=C(NCC(c1cccs1)S(=O)(=O)c1ccccc1)c1ccc(C(F)(F)F)cc1 (stereo unspecified)	-1.4%
COc1ccc(NC(=O)[C@@H](c2ccccc2)N2Cc3ccccc3C2=O)cc1OC	0.6%
CSc1ncccc1C(=O)NCC1Cc2cc(F)cc(-c3cncnc3)c2O1 (stereo unspecified)	0.6%
CSc1ccc(C(=O)N2CCc3c(cnc(C)c3CNC(=O)c3cncs3)C2)cc1	-0.4%
COc1ccc(NC(=O)CC2C(=O)N(c3ccc(OC)cc3)C(=O)N2CCC2=CCCCC2)cc1 (stereo unspecified)	7.2%
Cc1ccc2nc(N3CCN(c4ccccc4F)CC3)c3nnnn3c2c1	1.2%
CCc1c(-c2ccccc2)nc2ccccc2c1C(=O)NCCc1ccccc1	2.3%
Cc1ccc(-n2nc(CO)c(C(=O)NCc3cccs3)n2)cc1C	2.0%
COC(=O)c1ccccc1NC(=O)c1nn(C)c2c1COc1ccccc1-2	1.5%
Cc1cc(Cl)ccc1NC(=O)c1cc2ccccn2n1	2.7%
COc1ccc(C(=O)N(Cc2cc(OC)c(OC)c(OC)c2)CC2CCCO2)cc1 (stereo unspecified)	-0.8%
COC(=O)c1c(OCc2ccccn2)cc(=O)n2c1CCN(Cc1cccc(C(F)(F)F)c1)CC2	1.1%
Cc1ccc(OCC(=O)NCC(c2ccc(Cl)cc2)N2CCOCC2)cc1C (stereo unspecified)	-0.7%
CCOc1ccc(-c2cccc(NS(=O)(=O)c3ccccc3C(F)(F)F)c2)nn1	2.8%
Cc1ccc(CCNC(=O)CCCn2c(=O)c3ccccc3n(Cc3ccccc3C#N)c2=O)cc1	0.2%
CCc1ccc(NC(=O)Cn2c(=O)oc3cc(S(=O)(=O)N4CCCCCC4)ccc32)cc1	2.6%
O=C(Nc1ccc(N2CCN(CCOc3ccc(Cl)cc3)CC2)c(C(=O)O)c1)c1ccc(F)cc1	2.1%
COc1ccc2c(c1)c(=O)c(S(=O)(=O)c1ccc(C)cc1)cn2Cc1ccccc1C	2.2%
Cc1cc(N2CCN(c3cccc(C)c3C)CC2)n2cnnc2n1	1.3%
c1csc(C2=NC(c3ccncc3)=Nc3ccccc3N2)c1	-1.6%
O=c1c2c3c(sc2n(Cc2ccccc2F)c(=O)n1-c1ccc(Cl)cc1)CCCC3	1.5%
COC(=O)c1c(NC(=O)c2cc(OC)c(OC)c(OC)c2Br)sc2c1CCC(C)C2 (stereo unspecified)	4.5%
CN(C)c1ccc(/C=C/c2cncc3ccccc23)cc1	0.0%
c1ccc2nc3c(cc2c1)CCCC3	1.6%
Cc1cc(=O)n(CC(=O)N2CCCc3ccccc32)c2c1c(C)nn2-c1cccc(F)c1	2.8%
COc1ccc(-n2c(SCc3nc(-c4ccc(Cl)cc4)no3)nnc2-c2ccncc2)cc1	-0.3%
CCNC(=O)C1CCCN(c2nnc(C)c3c(C)n(-c4ccc(C)cc4)nc23)C1 (stereo unspecified)	0.8%
CCCCn1cnc2cc(NCc3ccc(OCC)cc3)ccc21	0.7%
CCC1Sc2ccccc2N(CC(=O)NCc2ccc(C)cc2)C1=O (stereo unspecified)	0.0%
COc1cccc(C(=O)CC2(O)C(=O)N(Cc3ccccc3)c3ccccc32)c1 (stereo unspecified)	-0.6%
Fc1ccc(C2=NC(c3cccc(C(F)(F)F)c3)=Nc3ccccc3N2)cc1	24%
CC(C)OCCCn1c(SCc2cccc(Br)c2)nc2c(sc3ccccc32)c1=O	0.4%
Cc1ccccc1CN1CCCN(CC(=O)Nc2c(C)cccc2C)S1(=O)=O	1.4%
O=C(CSc1oc(-c2ccco2)nc1S(=O)(=O)c1ccc(Cl)cc1)c1ccc(Cl)cc1	-1.2%
CCC1CN(C(=O)Nc2cc(Cl)ccc2C(=O)OC)c2ccccc2S1 (stereo unspecified)	0.7%
Cc1nnc(N2CCCC(C(=O)NCc3ccccc3)C2)c2nn(-c3ccccc3)c(C)c12 (stereo unspecified)	0.7%
Cc1cccc(NC(=O)c2cnn(-c3ccccc3)c2-n2cccc2)c1C	0.6%
